H5N1 antiviral – MDCK cell protection from H5N1 avian flu. AID 740. cytopathic effect, luminescence, 72 h; hits give high values; no value below 0 was filed and about half of the inactive calls have no number; reference of the scale not given here. 96,000 tested, 0.07% active. inhibition, % at 50 µM; in the data active = inhibition above about 25%
Numbers without * were called inactive. Some of the compounds tested; rates above refer to the full screens.

Results for CC1CCC2(CC1)Nc1ccccc1C(=O)N2c1ccccc1 (configuration not stated) ?
H5N1 antiviral: inactive

How did COc1ccc(CC(NC(C)=O)C(=O)NC2CCN(C(=O)Nc3ccc(Cl)cc3)CC2)cc1OC (configuration not stated) do in these assays?
H5N1 antiviral: inactive

What do the screens show for `O=C(CN1CCC(c2nc3ccccc3[nH]2)CC1)Nc1ccc2c(c1)OCO2`?
H5N1 antiviral: inactive

Results for O=C(Cc1ccccc1)Nc1nnc(-c2cccs2)s1 ?
H5N1 antiviral: inactive

Results for CCOC(=O)C1(P(=O)(c2ccccc2)c2ccccc2)CCC1 ?
H5N1 antiviral: 0.5

What do the screens show for `Cc1cccc(N(C(=O)Nc2ccccc2)C2=NCC(C)S2)c1` (configuration not stated)?
H5N1 antiviral: inactive

Results for O=C(c1ccccc1)N1CCN(C2C3CC4CC(C3)CC2C4)CC1 (configuration not stated) ?
H5N1 antiviral: 0.3

What do the screens show for `CCC(C)[C@H](NC(=O)NC1CCN(Cc2ccccc2)CC1)C(=O)OC` (some centres not stated)?
H5N1 antiviral: 0.4

Results for O=C(COC(=O)C1CC(=O)N(c2nc(-c3ccccc3)cs2)C1)c1ccccc1 (configuration not stated) ?
H5N1 antiviral: 0.4

Results for O=C(c1cnn2c(C(F)F)cc(C3CC3)nc12)N1CCCC1 ?
H5N1 antiviral: 1.3

Entries shown so far containing sulfur (3):
Results for O=C(Cc1ccccc1)Nc1nnc(-c2cccs2)s1 ?
H5N1 antiviral: inactive

What do the screens show for `Cc1cccc(N(C(=O)Nc2ccccc2)C2=NCC(C)S2)c1` (configuration not stated)?
H5N1 antiviral: inactive

Results for O=C(COC(=O)C1CC(=O)N(c2nc(-c3ccccc3)cs2)C1)c1ccccc1 (configuration not stated) ?
H5N1 antiviral: 0.4

Among those listed so far, 4 contain nitrogen in an aromatic ring.
What do the screens show for `O=C(CN1CCC(c2nc3ccccc3[nH]2)CC1)Nc1ccc2c(c1)OCO2`?
H5N1 antiviral: inactive

Results for O=C(Cc1ccccc1)Nc1nnc(-c2cccs2)s1 ?
H5N1 antiviral: inactive

Results for O=C(COC(=O)C1CC(=O)N(c2nc(-c3ccccc3)cs2)C1)c1ccccc1 (configuration not stated) ?
H5N1 antiviral: 0.4

Results for O=C(c1cnn2c(C(F)F)cc(C3CC3)nc12)N1CCCC1 ?
H5N1 antiviral: 1.3

Later entries:
What do the screens show for `COc1ccc2c(C)c(C(=O)O)oc2c1`?
H5N1 antiviral: inactive

Results for NC(=O)CSc1nc2cc3c(cc2c(=O)n1CCCC(=O)NCc1ccc2c(c1)OCO2)OCO3 ?
H5N1 antiviral: inactive

Results for Nc1c(C(=O)C2CC2)sc2nc(-c3cccs3)cc(C(F)(F)F)c12 ?
H5N1 antiviral: inactive

Results for FC(F)(F)c1cc(C(F)(F)F)c2ccc(N3CCN(c4ccccc4)CC3)nc2n1 ?
H5N1 antiviral: 0.3

Results for Cn1c(=O)c2c(nc(SCCN3CCOCC3)n2Cc2cccc3ccccc23)n(C)c1=O ?
H5N1 antiviral: 0.7

How did COc1cccc2cc(C(=O)N3CCN(c4ccc(C)cc4C)CC3)c(=O)oc12 do in these assays?
H5N1 antiviral: inactive

What do the screens show for `Cc1cc2cc(CN(Cc3ccco3)S(=O)(=O)c3c(C)ccc4nsnc34)c(=O)[nH]c2cc1C`?
H5N1 antiviral: 1.1

Results for COc1ccc(OCCCC(=O)Nc2ccc3c(c2)OCO3)cc1 ?
H5N1 antiviral: inactive

What do the screens show for `CCOC(=O)CSc1nc2cc(C(=O)OC)ccc2c(=O)n1CCN1CCOCC1`?
H5N1 antiviral: 2.6

What do the screens show for `O=C(NCCC1=CCCCC1)C(c1ccccc1)c1ccccc1`?
H5N1 antiviral: 1.4

How did O=C(C1CCN(S(=O)(=O)c2cccc3nsnc23)CC1)N1CCn2c1nc1ccccc12 do in these assays?
H5N1 antiviral: 3.1

How did c1ccc(CNc2nc3ccccc3[nH]2)cc1 do in these assays?
H5N1 antiviral: inactive

What do the screens show for `CCOC(=O)COc1ccc(S(=O)(=O)NCc2cccnc2)cc1`?
H5N1 antiviral: 1.7

How did O=C(CSc1nnc(C2COc3ccccc3O2)o1)N1CCCc2ccccc21 (configuration not stated) do in these assays?
H5N1 antiviral: 0.2

How did Nc1ccc(Nc2ccccc2)c(Cl)c1 do in these assays?
H5N1 antiviral: inactive

How did O=C(COc1ccccc1)N1CCN=C1c1ccccc1 do in these assays?
H5N1 antiviral: 0.2

What do the screens show for `O=C(Cn1cnc2ccccc21)NCc1ccccc1`?
H5N1 antiviral: 0.8

How did CC(=O)Nc1ccc(S(=O)(=O)c2ccc(N)cc2)cc1N do in these assays?
H5N1 antiviral: 1.4

How did Cc1cc(OC(=O)c2cc(F)c(F)cc2Cl)nc(C)n1 do in these assays?
H5N1 antiviral: 0.7

What do the screens show for `COCCCn1c(SCC(=O)Nc2ccc3c(c2)OCCO3)nnc1-c1ccoc1C`?
H5N1 antiviral: 1.0

Results for COC(=O)Cc1c(C)nc2nc(-c3ccc(Cl)cc3)[nH]n2c1=O ?
H5N1 antiviral: inactive

How did CC(C)(C)OC(=O)NCCc1nnc(SCc2ccc(Cl)cc2Cl)o1 do in these assays?
H5N1 antiviral: 4.8

What do the screens show for `CN1CCCCc2c1[nH]c1ccccc1c2=O`?
H5N1 antiviral: 2.0

Results for COCCOC(=O)C1=C(C)Nc2nc(C)nn2C1c1ccc(F)cc1 (configuration not stated) ?
H5N1 antiviral: 3.2

How did CCC(C)C(=O)Nc1ncc2c(n1)CC(c1cccs1)CC2=O (configuration not stated) do in these assays?
H5N1 antiviral: 0.6

What do the screens show for `CNC(=O)C1CCN(C(=O)c2ccc(-c3ccccc3)cc2)CC1`?
H5N1 antiviral: inactive

What do the screens show for `COc1ccc(-n2c(Cc3cc(=O)[nH]c(=O)[nH]3)nnc2SCC(=O)N2CCCC2)cc1`?
H5N1 antiviral: 2.3

Results for Brc1ccc(-c2nnc3ccc(N4CCN(c5ccccc5)CC4)nn23)cc1 ?
H5N1 antiviral: inactive

How did CC(=O)c1ccc(NC(=O)Nc2ccc(NS(=O)(=O)c3ccc(C)cc3)cc2)cc1 do in these assays?
H5N1 antiviral: inactive

What do the screens show for `Cc1nc2cc(C(F)(F)F)ccc2n1C1CCN(CC(=O)N2CCOCC2)CC1`?
H5N1 antiviral: 0.8

Results for OCCOCCn1c2ccccc2c2ccccc21 ?
H5N1 antiviral: 0.6

Results for O=C(N/N=C\c1ccccn1)C1COc2cc3ccccc3cc2O1 (configuration not stated) ?
H5N1 antiviral: inactive

Results for COc1cccc(C(=O)Nc2cccc(OC(C)=O)c2)c1 ?
H5N1 antiviral: inactive

What do the screens show for `Cc1[nH]c(=O)[nH]c(=O)c1S(=O)(=O)Nc1ccc(Oc2ccccc2)cc1`?
H5N1 antiviral: inactive

How did CCCOC(=O)c1sc2nc3c(cc2c1N)C(=O)CCC3 do in these assays?
H5N1 antiviral: 2.1

Results for COCc1cc(=O)n2[nH]c(-c3ccccc3)cc2n1 ?
H5N1 antiviral: 0.9

Results for O=C(NCc1cccs1)C1CCCN1C(=O)NC1CCCCC1 (configuration not stated) ?
H5N1 antiviral: inactive

What do the screens show for `O=C(Nc1ccccc1NC(=O)c1ccco1)c1ccco1`?
H5N1 antiviral: 1.1

What do the screens show for `O=S(=O)(c1cccc(S(=O)(=O)N2CCC(N3CCCCC3)CC2)c1)N1CCOCC1`?
H5N1 antiviral: 0.5

How did CCCc1[nH]nc2c1C(c1ccc(OC)c(Cn3nnc4ccccc43)c1)C(C#N)=C(N)O2 (configuration not stated) do in these assays?
H5N1 antiviral: 0.7

What do the screens show for `Cc1nn(-c2ccccc2)c2c1/C(=N/O)CC(C)(C)C2`?
H5N1 antiviral: 1.5

How did O=C(Nc1ccc(-c2nc3ccccc3s2)cc1)c1cc(-n2cnnc2)ccc1Cl do in these assays?
H5N1 antiviral: inactive

How did O=C(Cn1nc(C(F)(F)F)c2c1CCCC2)NCc1ccco1 do in these assays?
H5N1 antiviral: 1.3

How did COc1ccc(-n2c(=S)[nH]c3cc(C(=O)NCCCN4CCCC4=O)ccc3c2=O)cc1 do in these assays?
H5N1 antiviral: 1.1

How did COc1ccc(C(=O)N2CCN(c3ccc(C)cc3)CC2)cc1OC do in these assays?
H5N1 antiviral: 0.3

Results for Cc1ccc(CCNC(=O)CC2Oc3ccc(C)cc3NC2=O)cc1 (configuration not stated) ?
H5N1 antiviral: 0.9

How did COC(=O)C1(C(=O)OC)Sc2ccccc2C1=O do in these assays?
H5N1 antiviral: 0.7

What do the screens show for `CC(C)CC(NS(=O)(=O)c1ccc2c(c1)oc(=O)n2C)C(=O)N1CC=C(c2ccccc2)CC1` (configuration not stated)?
H5N1 antiviral: 0.5

Results for CCOC(=O)c1ccc(N=CC2=C(O)CC(C)(C)CC2=O)cc1 ?
H5N1 antiviral: inactive

What do the screens show for `Cc1cc(C)n(CC(=O)N/N=C/c2ccc(C)o2)n1`?
H5N1 antiviral: 1.0

How did COc1ccc(C(=O)NC2(C(F)(F)F)C(=O)N(Cc3ccco3)C3=C2C(=O)CC(C)(C)C3)cc1OC (configuration not stated) do in these assays?
H5N1 antiviral: 0.9

Results for Nc1ncnc2nc(SCc3ccc(Cl)cc3Cl)[nH]c12 ?
H5N1 antiviral: inactive

Results for Cc1ccc(-n2c(Cc3cccn3C)nnc2SCC(=O)NCc2ccco2)cc1 ?
H5N1 antiviral: 1.6

What do the screens show for `COc1ccc(OCCOC(=O)Nc2ccccc2)cc1`?
H5N1 antiviral: inactive

What do the screens show for `Cc1cccc(NC(=O)c2oc3c(c2C)C(=O)CC(C)(C)C3)n1`?
H5N1 antiviral: 0.1

How did Cc1cc(C)c[n+](-c2nc3ccccc3nc2C(=C=[N-])C#N)c1 do in these assays?
H5N1 antiviral: inactive

What do the screens show for `CCOc1ccc(Cl)cc1S(=O)(=O)NCc1cccnc1`?
H5N1 antiviral: 1.2

What do the screens show for `CCOC(=O)c1sc(C)c2c1NC(C)(c1cccc3ccccc13)NC2=O` (configuration not stated)?
H5N1 antiviral: inactive

How did COc1ccc(NC2=NC3(CCCCC3)N=C(N)N2)cc1 do in these assays?
H5N1 antiviral: inactive

Results for Cn1c(=N)n(CC(=O)c2cccs2)c2ccccc21 ?
H5N1 antiviral: inactive

Results for Nc1nnnn1/N=C/c1cccc(Oc2ccccc2)c1 ?
H5N1 antiviral: 0.2

What do the screens show for `C/C(CC(=O)Nc1cccc2c1CCCC2)=N\NC(=O)c1ccccc1N`?
H5N1 antiviral: inactive

What do the screens show for `CCOC(=O)CN1C(=O)NC(C)(c2ccc(OC(F)F)cc2)C1=O` (configuration not stated)?
H5N1 antiviral: inactive

What do the screens show for `CCOc1cc(C2NCc3ccccc3-n3cccc32)ccc1O` (configuration not stated)?
H5N1 antiviral: 11

What do the screens show for `CN(C)c1cccc(C(=O)Nc2ccc3nc4n(c(=O)c3c2)CCCCC4)c1`?
H5N1 antiviral: 27*

What do the screens show for `CCOC(=O)N1CCN(C(=O)c2ccc(N(Cc3ccc(C)cc3)S(C)(=O)=O)cc2)CC1`?
H5N1 antiviral: 0.4

How did CSc1nc(N2CCOCC2)c2c3c(sc2n1)CCCC3 do in these assays?
H5N1 antiviral: 2.0

How did CCN(C(=O)C1CCN(S(=O)(=O)c2cccc3nonc23)CC1)c1ccccc1 do in these assays?
H5N1 antiviral: 1.8

What do the screens show for `O=S(=O)(NCc1ccccc1Br)c1cccs1`?
H5N1 antiviral: 1.0

How did CC1CCC(NC(=O)Cn2ncc3ccccc32)CC1 (configuration not stated) do in these assays?
H5N1 antiviral: 1.4

Results for c1ccc2c(N3CCCC3)nc(-c3ccncc3)nc2c1 ?
H5N1 antiviral: 0.2

How did Cc1cc(Cl)ccc1OC(C)C(=O)N1CCCN(C(=O)C(C)Oc2ccc(Cl)cc2C)CC1 (configuration not stated) do in these assays?
H5N1 antiviral: inactive

Results for CCC(C)NC(=O)CO/N=C/c1ccc(C(=O)OC)cc1 (configuration not stated) ?
H5N1 antiviral: inactive

What do the screens show for `COc1ccc(/C=C2\NC(=S)N(CC3CCCO3)C2=O)c(OC)c1` (configuration not stated)?
H5N1 antiviral: inactive

Results for O=c1cc(N2CCOCC2)[nH]c(=O)n1Cc1ccc(F)cc1 ?
H5N1 antiviral: 0.4

How did CCOC(=O)C(C)Sc1nnc(Cn2c(=O)sc3ccccc32)n1-c1ccccc1 (configuration not stated) do in these assays?
H5N1 antiviral: 11

How did CC1=NN(c2ccccc2)C(=O)C1(C)C do in these assays?
H5N1 antiviral: inactive

What do the screens show for `COc1cccc2c1N1C(=O)c3c(C(=O)O)cccc3C1CC2(C)C` (configuration not stated)?
H5N1 antiviral: inactive

How did CC(C)NS(=O)(=O)c1ccc(N2C(=O)c3ccccc3C2=O)cc1 do in these assays?
H5N1 antiviral: 0.5

How did CCCCCOC(=O)Nc1nnc(CCC)s1 do in these assays?
H5N1 antiviral: inactive

What do the screens show for `COc1ccc(/C=C/c2c([N+](=O)[O-])c(=O)n(C)c(=O)n2C)cc1O`?
H5N1 antiviral: 11

What do the screens show for `O=C(CSc1nccn1-c1ccccc1)Nc1ccc2c(c1)OCO2`?
H5N1 antiviral: 2.1

Results for CC1(c2ccc3c(c2)OCO3)NC(=O)N(CC(=O)Nc2ccc(N3CCOCC3)cc2)C1=O (configuration not stated) ?
H5N1 antiviral: 0.2

Results for CCN1CCN(c2nc3ccccc3nc2C(C#N)C(=O)OC2CCCCC2)CC1 (configuration not stated) ?
H5N1 antiviral: inactive

Results for COCCNC(=O)c1ccc(Cn2c(=S)[nH]c3cc4c(cc3c2=O)OCO4)cc1 ?
H5N1 antiviral: 1.6

Results for C=CCn1c(C)cc(C(=O)CSc2nnc(Cc3ccccc3)o2)c1C ?
H5N1 antiviral: 0.8

Results for CC1(C)CN=C(Nc2ccc(F)c(F)c2)S1 ?
H5N1 antiviral: inactive

What do the screens show for `CCC(=NC(C)c1ccccc1)c1c(O)n(C)c(=O)n(C)c1=O` (configuration not stated)?
H5N1 antiviral: 1.7
